Source: PubChem BioAssay (several laboratories)
E coli growth: inhibitors of Escherichia coli growth | OD600, 23 h; stronger effect = lower value | 0.21% of 330,000 active | OD600 absorbance (test concentration not listed);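 active = OD600 absorbance below the run mean of sample wells minus 3.6 SD, in any replicate, cut at about 0.56 in these data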;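 also: stock transfer was 300 nL into about 60 µL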
HNF4A DNA FP: change in binding of human HNF4 alpha to DNA; activity change, % at 10 µM; AID 1224865; P41235; 0.3% of 360,000 active; HNF4a-FITC DNA binding, fluorescence polarization, 1 h; in the data active = activity change above about 30%, passing the limit was not always enough;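 also: controls were the assay level and a saturating level of protein; the project sought stronger binding though the title names inhibitors; some compounds called inactive have numbers as strong as hits; positive values seem to mean higher polarization but the record does not say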
Vif TR-FRET: inhibitors of Vif binding to APOBEC3G peptide, primary screen, biochemical, TR-FRET, GST-Vif 1-94, biotin-A3G peptide, dose response retest (AID 1117319). TR-FRET GST-Vif / biotin-A3G peptide binding; higher % means a stronger effect; test concentration not given here; strong numbers were not always called active. inhibition, %, or IC50 in µM where a hit was titrated. 0.57% of 260,000 active;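 active = above the screen mean plus three standard deviations and confirmed in dose response; inconclusive = results disagree or hit not tested in dose response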;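 also: Vif residues 1-94 fused to GST binding biotinylated APOBEC3G peptide 110-148; 0% = full assay without inhibitor and 100% = GST in place of GST-Vif; retest series ran down from 100 µM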
ALR inh: blocks human ALR sulfhydryl oxidase activity; purified ALR, DTT oxidation, H2O2 HRP-luminol luminescence; 3.8% of 290,000 active; inhibition, % (no concentration beside the values);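 active = mean and each replicate at 75% or more; inconclusive = only one of the two met; inactive = neither met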;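 also: stock transfer was 7.5 nL into about 7.5 µL; 0% = neutral wells and 100% = wells with inactivated enzyme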
Target sequence (P55789 whole entry, looked up): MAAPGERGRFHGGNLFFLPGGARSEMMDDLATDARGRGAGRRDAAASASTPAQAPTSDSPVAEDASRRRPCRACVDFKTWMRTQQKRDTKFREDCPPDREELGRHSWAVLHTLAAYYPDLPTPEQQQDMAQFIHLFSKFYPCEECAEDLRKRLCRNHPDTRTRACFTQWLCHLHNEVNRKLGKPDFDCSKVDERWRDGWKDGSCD
MLL AF4-AF9 inh: blocks AF4 peptide binding to human AF9. AlphaScreen, biotin-AF4 peptide binding to FLAG-AF9. inhibition, % at 10 µM. 0.47% of 350,000 active. AID 651704;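 active = every replicate reaching a set inhibition limit, whatever the replicate mean, cut at about 25% in these data; inconclusive = mean inhibition reaches that limit but some replicates miss it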;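 also: 0% = plate neutral control median and 100% = total signal loss; the record names both 10 and 1 µM as test concentration; the first replicate is given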
Target sequence (P42568 whole entry, looked up): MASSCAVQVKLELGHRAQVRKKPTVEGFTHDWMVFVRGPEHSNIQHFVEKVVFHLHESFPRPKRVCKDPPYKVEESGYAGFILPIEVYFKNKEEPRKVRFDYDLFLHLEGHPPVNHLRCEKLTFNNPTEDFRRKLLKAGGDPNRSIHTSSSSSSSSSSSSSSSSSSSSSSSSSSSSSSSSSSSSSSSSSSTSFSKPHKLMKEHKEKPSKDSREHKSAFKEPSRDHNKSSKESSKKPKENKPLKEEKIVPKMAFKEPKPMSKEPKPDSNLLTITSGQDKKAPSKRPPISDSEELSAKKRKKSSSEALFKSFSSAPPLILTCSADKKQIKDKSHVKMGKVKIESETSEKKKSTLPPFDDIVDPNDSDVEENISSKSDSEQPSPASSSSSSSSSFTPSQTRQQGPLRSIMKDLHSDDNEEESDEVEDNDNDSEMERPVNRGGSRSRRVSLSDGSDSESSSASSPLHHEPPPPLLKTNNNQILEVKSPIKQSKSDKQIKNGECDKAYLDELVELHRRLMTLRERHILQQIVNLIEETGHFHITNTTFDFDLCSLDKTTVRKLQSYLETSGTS
FGF22 binding: FGF22 (human) thermal shift binding; 1.5% of 340,000 active; AID 651658; recombinant FGF22 thermal shift, SYPRO orange fluorescence; percent of sucrose octasulfate shift, DMSO zero; Q9HCT0; calls only at 9.99 µM;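 active = melting point raised past a set limit in the mean and every replicate; inconclusive = no clear call; three in four hits are not shown here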
Target sequence (Q9HCT0 whole entry, looked up): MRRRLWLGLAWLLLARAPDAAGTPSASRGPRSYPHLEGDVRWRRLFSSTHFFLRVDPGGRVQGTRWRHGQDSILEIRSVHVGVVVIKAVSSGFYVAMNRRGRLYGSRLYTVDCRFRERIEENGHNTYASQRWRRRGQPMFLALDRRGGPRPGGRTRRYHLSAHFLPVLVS
rRNA inh HTS: inhibitors of bacterial rRNA selective over humanized ribosomes. GFP signal change (wild-type ribosome), % (test concentration not listed). AID 720706. E. coli WT GFP vs humanized-ribosome RFP mutants, fluorescence, 24 h; stronger effect = lower value; DMSO median 0, no signal -100. 1.6% of 350,000 active;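 active = significant combined selectivity score with lowered wild-type GFP, culture density cut under 30%, mutant RFP and density less affected; inactive = any of these conditions unmet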; also: one replicate is shown; some compounds called inactive have numbers as strong as hits
rRNA inh HTS OD600: second read-out of rRNA inh HTS, no call of its own (marks repeat the call); OD600 change, %; measured here: OD600 growth;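 optical density of the mix in the first replicate; 0 = DMSO median and -100 = no signal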
rRNA inh HTS RFP: further read-out of rRNA inh HTS, marked with its call; RFP signal change, %; measured here: RFP humanized mutant strains;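 first replicate; 0 = DMSO median and -100 = no signal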
* hit, by the source's call; i = inactive; ? = inconclusive; . = not tested or not shown; + = active, no number. This is a subset. The share of hits here may be higher or lower than overall.

SMILES	E coli growth	HNF4A DNA FP	Vif TR-FRET	ALR inh	MLL AF4-AF9 inh	FGF22 binding	rRNA inh HTS	rRNA inh HTS OD600	rRNA inh HTS RFP
CCOC(=O)C1=C(C)NC(SC(C)=O)=NC1c1ccc(OC(C)=O)c(OC)c1 (stereo not drawn)	0.792	-0.5	-0.4%	26.9	.	.	.	.	.
C[C@H](O)[C@@H]1C(=O)N2CCc3c([nH]c4ccccc34)[C@@H]2C[C@@H]1N(C)C(=O)Nc1cc(Cl)cc(Cl)c1	.	3.5	.	.	1.2	i	-20.9	-60.3	29.1
Cc1ccccc1NC(=O)c1ccc(-n2cncn2)nc1	0.688	-2.1	2.1%	-4.2	.	.	.	.	.
Cc1onc(-c2ccccc2)c1C(=O)NCCN1CCOCC1	0.777	1.6	-4.8%	-3.4	.	.	.	.	.
C=CCOC(=O)c1ccc(N2CCN(c3ccccc3)CC2)nc1	0.691	2.1	4.9%	9.4	-0.1	i	-1.4	-1.1	-0.1
C#CCNC(=O)C1=C[C@@H](c2ccc(C#C)cc2)C[C@@H](OCc2ccc(CO)cc2)O1	.	2.3	.	7.7	-2.4	i	-4.0	-3.1	1.1
C[C@@H]1CN([C@H](C)CO)C(=O)Cc2cc(NC(=O)Nc3ccccc3)ccc2O[C@@H]1CN(C)S(=O)(=O)c1ccccc1	.	.	.	.	-6.3	i	-2.2	-24.1	0.1
COc1cc2c3c(c1)c(C1=NC(=S)NC1=O)c(O)n3C(C)(C)C=C2C	0.729	6.4	0.5%	-16.5	.	.	.	.	.
Cc1cc(C)c(-c2c(O)c3cccnc3n(C)c2=O)c(C)c1	0.673	-2.3	.	-4.0	-0.6	i	31.0	16.4	2.1
C[C@H]1CN([C@@H](C)CO)C(=O)c2cccc(N(C)C)c2O[C@H]1CN(C)C	.	.	.	.	-5.0	i	2.1	-2.2	-2.3
CCOC(=O)c1ccn(-c2nc(-c3ccco3)cc(C(F)(F)F)n2)n1	0.727	0.7	-0.7%	0.1	-1.4	i	-2.3	-13.0	-4.3
Nc1nc2ncc(-c3ccsc3)c(N)n2n1	0.681	1.3	-1.2%	-16.1	0.4	i	5.0	4.3	1.4
CC(=O)N(C)C[C@H]1Oc2ncc(-c3ccc(C#N)cc3)cc2C(=O)N([C@H](C)CO)C[C@H]1C	.	.	.	.	-0.3	i	4.8	15.6	-2.7
Cc1ccc(C(=O)NCCCc2ccccc2)c(Cl)c1	0.7	-2.7	.	-12.0	0.3	i	-3.0	-22.3	-5.3
CCCNC(=O)N1CC2(CN(S(=O)(=O)c3ccccc3)C2)c2c(n(C)c3cc(OC)ccc23)[C@@H]1CO	.	.	.	.	-1.4	i	-5.2	-4.9	6.1
COc1cc(OC)c2c(-c3cccc(-c4ccc(OC)c(OC)c4)c3)cc(=O)oc2c1	.	-4.1	.	.	0.7	i	11.1	7.5	2.6
CCCCCC(=O)N(Cc1ccccc1)c1c(N)n(CCOC)c(=O)[nH]c1=O	0.664	-2.0	.	-9.8	0.7	i	10.6	9.6	-1.8
O=[N+]([O-])c1ccc(N/N=C/c2ccc[nH]2)cc1	.	33.8	6.7%	71.5	19.2	+	-8.3	-1.2	1.7
CC(C)NC(=O)Nc1ccc2c(c1)C(=O)N([C@H](C)CO)C[C@H](C)[C@@H](CN(C)C(=O)NC(C)C)O2	.	0.5	.	.	-4.6	+	4.9	8.3	-5.9
CC(=O)N1CCN(C(=O)c2cc(S(=O)(=O)N(C)Cc3ccccc3)ccc2Cl)CC1	0.716	4.6	-1.6%	.	-2.4	i	0.5	2.8	2.8
CC(=O)Nc1c(C(=O)O)oc2ccc(Cl)cc12	.	1.6	10.0%	-1.0	.	.	.	.	.
CN1CCC(N(CCc2ccccc2)C(=O)CCC(=O)O)CC1	0.653	-3.5	.	0.9	-5.4	i	-1.5	-7.9	-2.2
CCCNC(=O)C[C@H]1CC[C@@H]2[C@H](COc3ccc(NC(=O)c4cccc(F)c4)cc3C(=O)N2C)O1	.	.	.	.	-0.7	i	2.9	-0.3	-1.4
CC1CN(C2CCN(C(=O)c3ccccc3Cl)CC2)CC(C)O1 (stereo not drawn)	0.825	-2.4	3.3%	-7.0	.	.	.	.	.
Cc1ccc(S(=O)(=O)NCCC(=O)Nc2cc(S(=O)(=O)N(C)C)ccc2C)cc1C	0.674	-2.2	2.4%	-2.6	1.3	i	-0.7	-10.0	0.4
More records follow.
SMILES	E coli growth	HNF4A DNA FP	Vif TR-FRET	ALR inh	MLL AF4-AF9 inh	FGF22 binding	rRNA inh HTS	rRNA inh HTS OD600	rRNA inh HTS RFP
CC=Cc1ccc2n(c1=O)C[C@H]1[C@H](CO)[C@@H](C(=O)N3CCc4ccccc4C3)[C@@H]2N1CCC (mixture of isomers)	.	.	.	.	2.1	i	-0.6	1.8	-1.8
CC(C)CCNC(=O)C1CC(=O)N(CCc2ccccc2)C1 (stereo not drawn)	0.679	0.1	4.2%	-8.1	-0.2	i	2.4	6.4	0.7
O=C(c1cnc2n(c1=O)CCS2)N1CCN(C(c2ccccc2)c2ccc(Cl)cc2)CC1 (stereo not drawn)	0.73	-2.9	-6.3%	-18.0	.	.	.	.	.
COc1ccccc1CNS(=O)(=O)c1ccc(N2CCCC2)cc1Br	0.73	3.3	3.3%	.	-0.5	i	-33.6	-30.7	3.1
Cc1sc(NC(=O)CN2C(=O)NC3(CCCC3)C2=O)nc1-c1ccc(F)cc1	0.644	-4.3	-6.8%	-3.2	-0.5	.	-0.9	-12.2	1.3
O=C(Oc1cc(Cl)cc(Cl)c1)c1cnc2n(c1=O)CCS2	0.677	1.4	.	.	0.1	i	-22.8	-20.1	-3.6
O=C(CN1c2ccccc2Sc2ccccc21)N/N=C/c1ccccc1	.	-3.0	10.8%	2.1	5.7	i	0.4	5.1	-3.5
CC(=O)Nc1nnc(SCC(=O)NC2CCCC2)s1	0.704	-1.5	.	-3.9	-3.4	i	2.6	3.7	-0.6
CSCC[C@H](NC(=O)NCCc1ccc(F)cc1)C(=O)O	0.679	-0.6	-3.0%	-7.9	.	.	.	.	.
O=C(C1CCCO1)N1CCN(C(=S)Nc2ccccc2F)CC1 (stereo not drawn)	0.71	1.7	2.6%	.	.	.	.	.	.
CN(C)CC(=O)N[C@H]1CC[C@H](CCn2cc(CN(C)C)nn2)O[C@H]1CO	.	.	.	.	13.4	i	6.4	0.3	12.1
Cc1ccc(-c2nc(CSCC(=O)N3CCOCC3)c(C)o2)cc1	0.718	-0.8	?	99.1*	.	.	.	.	.
COc1ccc(S(=O)(=O)N(C)CC(=O)NCc2ccco2)cc1Cl	0.688	1.5	.	1.7	-1.3	i	11.4	-15.6	3.7
CC1CC(O)C2C3(C)CCCC2(COC3=O)C12CCC1(CCOC1=O)O2 (stereo not drawn)	.	-0.3	.	.	3.2	i	.	.	.
O=C(NCC(F)(F)F)c1nn(Cc2ccccc2)c(=O)c2ccccc12	0.688	-0.9	-5.4%	-9.3	-0.7	i	0.7	0.7	-4.0
C[C@@H]1CN([C@H](C)CO)C(=O)c2cc(NC(=O)Nc3cccc4ccccc34)ccc2O[C@@H](C)CCCCO[C@@H]1CN(C)C(=O)c1ccccc1	.	.	.	.	-4.4	i	0.4	8.8	-1.2
COc1ccc(S(=O)(=O)N[C@H]2CC[C@@H](CCNC(=O)c3ccccc3F)O[C@@H]2CO)cc1	.	.	.	.	-1.4	i	0.1	-1.5	-1.0
O=C(c1ccco1)N1CCN(S(=O)(=O)c2cc(Cl)ccc2Cl)CC1	0.625	0.1	.	-11.3	-1.3	i	-13.9	-7.0	-2.5
CCNC(=O)Nc1ccc2c(c1)C(=O)N(C)[C@H]1CC[C@H](CC(=O)Nc3ccc(C)cc3)O[C@@H]1CO2	.	.	.	.	1.3	i	-2.5	-0.9	-0.9
CCCNC(=O)N1C[C@@H](O)COC[C@H]2O[C@@H](CC(=O)OC)CC[C@@H]21	.	.	.	.	-5.3	i	6.8	5.0	0.2
Clc1cccc(Cl)c1NC1=NCCC1	0.651	8.0	-1.3%	-1.2	.	.	.	.	.
CC(C)NC(=O)N(C)C[C@H]1Oc2ncc(C#Cc3ccccc3F)cc2C(=O)N([C@@H](C)CO)C[C@@H]1C	.	.	.	.	-5.8	i	4.9	3.2	-0.4
C[C@@H](NC(=O)C[C@H]1CC[C@H](NC(=O)Nc2ccc3c(c2)OCO3)[C@@H](CO)O1)c1ccccc1	.	.	.	.	-3.0	i	-1.6	7.4	6.8
COc1ccc(-c2c(-c3ccc(OCC(=O)NN)cc3O)n[nH]c2C)cc1	0.668	1.8	-6.5%	-3.4	-4.5	i	-5.3	1.7	12.1
CN1CCC(N(C)C(=O)c2ccc(Cl)c(S(=O)(=O)Nc3ccc(Cl)cc3)c2)CC1	0.666	-2.2	.	.	-2.2	i	5.6	10.2	1.4
The results go on:
SMILES	E coli growth	HNF4A DNA FP	Vif TR-FRET	ALR inh	MLL AF4-AF9 inh	FGF22 binding	rRNA inh HTS	rRNA inh HTS OD600	rRNA inh HTS RFP
CCOC(=O)COc1ccc(Oc2nc(C)cc(OC)n2)nn1	0.7	-2.6	3.8%	1.8	.	.	.	.	.
COc1cc(N=Nc2cccc(S(N)(=O)=O)c2)c2ccccc2c1N	0.635	25.0	.	12.6	18.9	i	-59.8	-75.1	-18.6
CC1=C/C(=N\OC(=O)/C=C/c2ccccc2)C(C)=CC1=O	.	2.8	1.2%	94.8*	.	.	.	.	.
Cc1noc(C)c1NC(=O)Nc1cccc2c1O[C@H](CN(C)C(=O)Nc1cccc3ccccc13)[C@@H](C)CN([C@H](C)CO)C2=O	.	.	.	.	3.0	i	2.1	6.5	4.6
COc1ccc(S(=O)(=O)N(C)C[C@H]2OCCCC[C@H](C)Oc3ccc(NS(=O)(=O)c4ccccc4)cc3C(=O)N([C@H](C)CO)C[C@H]2C)cc1	.	.	.	.	-1.4	i	0.7	5.9	-0.3
CCc1noc(C)c1C(=O)Nc1nc(-c2ccccc2)cs1	0.639	-1.8	0.2%	-1.1	-1.5	.	-30.7*	-24.6*	-5.4*
CCOC(=O)C1=C(C)N(c2ccccc2)C(=O)/C1=C\c1ccc(O)c(OC)c1	0.691	0.5	.	27.8	13.9	i	11.4	6.4	2.1
Cc1cnc(C(=O)OCC(=O)N2c3ccccc3CC2C)cn1 (stereo not drawn)	0.71	1.5	14.6%	-3.9	-3.2	i	9.5	10.1	2.2
O=C(Nc1ccc2c(c1)C(N1CCOCC1)c1ccccc1-2)C(F)(F)F (stereo not drawn)	0.678	2.0	-7.8%	.	1.8	i	-8.0	-23.8	0.6
O=[N+]([O-])c1ccc(-[n+]2nc(-c3ccccc3)nn2-c2ccccc2)cc1	0.823	4.2	.	-48.0	2.2	i	-21.8*	14.9*	1.2*
Cc1ccc(-c2nnc(-c3ccccc3)o2)cc1	0.618	-0.2	8.9%	-2.6	.	.	.	.	.
Cc1cc(C)c(NC(=O)CCCN2CCOCC2)c(C)c1	0.67	1.0	17.2%	-7.0	.	.	.	.	.
O=C(Cc1cccs1)N1CCN(S(=O)(=O)c2ccc(Cl)c(C(F)(F)F)c2)CC1	0.695	0.2	-3.9%	-3.7	-2.1	i	8.3	13.5	-0.2
O=C(C[C@H]1CC[C@H]2[C@@H](COC[C@@H](O)CN2C(=O)Nc2ccc(C(F)(F)F)cc2)O1)NCCc1ccncc1	.	.	.	.	-0.7	i	-59.6	-78.8	-19.8
COc1ccccc1-c1nnc2sc(-c3cnccn3)nn12	0.67	-1.6	16.3%	-17.7	-15.4	i	2.7	-2.2	28.3
